Assay outcomes deposited in PubChem by National Center for Advancing Translational Sciences (NCATS).
gsp ag – qHTS for Agonist of gsp, the Etiologic Mutation Responsible for Fibrous Dysplasia/McCune-Albright Syndrome: qHTS. gsp mutant cells, cAMP HTRF, 30 min; control for the full effect not named in the record. Potency, µM (top dose mostly 76.9 µM), for inactives: top-dose activation (cAMP increase), most hits filed as activators. 340,000 compounds, 0.13% hits; active = well fitted activation curve with a large enough effect; inconclusive = small, poorly fitted or top-dose-only effect, or another doubt; inactive = no such curve, though single readings can be large or run the other way; cell line not stated here;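 note: phosphodiesterase inhibitor Ro 20-1724 added with compounds to block cAMP breakdown; potency is the fitted concentration of half-maximal effect; nearly all actives have a fitted effect of over 60% in size; about a fifth of the inactives were tested at one dose only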
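Cells stably selected in G418 were plated at 2000/well, grown 16-24 hr, then given compounds in DMSO with the PDE inhibitor […] (300 uM solution added) for 30 min at 37C; cAMP was read by HTRF.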
CtBP-E1A inh – qHTS Assay for Inhibitors of the CtBP/E1A Interaction; AlphaScreen GST-E1A/His-CtBP binding, 1536-well; hits give low values; control for the full effect not named in the record; CtBP / adenovirus E1A interaction (AlphaScreen); 340,000 compounds, 0.49% hits; AID 651724, 2012; activity change, % (no concentration beside the values); in the data active means activity change below about -65%; inconclusive means about -30% to -65%; inactive means above about -30%; note: % is set by controls: 0 for no effect and ±100 for the full control effect
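GST-E1A and His-tagged CtBP (125 nM each as 5X stock) were preincubated with pin-transferred compound for 2 h at 37 °C in the dark, then glutathione donor and nickel acceptor beads were added for 1 h before AlphaScreen reading.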
ClpP mod – qHTS Assay for Activators of ClpP; 340,000 compounds, 1.9% hits; Potency, µM (highest dose often 57.5 µM), for inactives: at the highest dose activity change, negative = active; purified B. subtilis ClpP, FRET peptide cleavage, 20 min; AID 651965, 2013; active = well fitted falling curve with a large enough effect; inconclusive = small, poorly fitted or top-dose-only effect; inactive = no such curve, though single readings can be large or run the other way; note: potency is the fitted concentration of half-maximal effect; the source files actives as falling curves though it sought activators and does not explain the sign; nearly all actives have a fitted effect of over 65% in size; many hits overshoot -100%
Target sequence (P80244 whole entry, looked up): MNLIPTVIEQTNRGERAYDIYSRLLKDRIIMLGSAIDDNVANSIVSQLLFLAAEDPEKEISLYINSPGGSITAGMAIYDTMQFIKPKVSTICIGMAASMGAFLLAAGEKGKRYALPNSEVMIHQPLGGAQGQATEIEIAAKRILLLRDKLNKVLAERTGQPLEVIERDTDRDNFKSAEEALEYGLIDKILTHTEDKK
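ClpP 10 microg/mL final, pH 8 Tris/KCl buffer with BSA, glycerol, Tween-20; compound pinned in; FRET-FV substrate; RT 20 min; Ex320/Em430; ΔFRET vs ADEP 5.8 microM, DMSO, no enzyme.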
gsp antagonist – qHTS for Antagonists of gsp, the Etiologic Mutation Responsible for Fibrous Dysplasia/McCune-Albright Syndrome: qHTS | gsp-mutant cells, cAMP HTRF, 30 min; control for the full effect not named in the record | Potency, µM (titrated, usually from 76.9 µM), without a hit: top-dose activity change, negative = inhibition, usual class: inhibitors | 340,000 compounds, 0.4% hits | AID 624288, 2012; active = falling curve of any shape with a large fitted effect; inconclusive = falling curve, mostly with a smaller effect; inactive = flat or rising curve; cell line not stated here;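 note: intracellular cAMP measured with PDE inhibitor Ro 20-1724 present during compound exposure; potency is the fitted concentration of half-maximal effect; % is set by controls: 0 for no effect and ±100 for the full control effect; nearly all actives have a fitted effect of over 65% in size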
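HTRF cAMP read-out (cAMP-d2 plus anti-cAMP antibody-K in lysis buffer, 30 min RT). Before lysis, cells are exposed to compounds with […] for 30 min at 37C in DPBS containing Ca/Mg, BSA and Tween 20.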
TRPV1 potentiator – HTS Assay for Compounds that Act as Potentiators of the Vanilloid Receptor 1. AID 540277, 2011. 320,000 compounds, 0.02% hits. TRPV1-expressing cells, Fluo-8 calcium influx, capsaicin EC20 potentiation; host cell line not named in the record; control for the full effect not named in the record. Transient receptor potential cation channel subfamily V member 1 (Homo sapiens), Q8NER1. potentiation, % at 8.33 µM; active means potentiation above 80%; inconclusive means 30% to 80%; inactive means below 30%; note: 0% is about no effect
Target sequence (Q8NER1 whole entry, looked up): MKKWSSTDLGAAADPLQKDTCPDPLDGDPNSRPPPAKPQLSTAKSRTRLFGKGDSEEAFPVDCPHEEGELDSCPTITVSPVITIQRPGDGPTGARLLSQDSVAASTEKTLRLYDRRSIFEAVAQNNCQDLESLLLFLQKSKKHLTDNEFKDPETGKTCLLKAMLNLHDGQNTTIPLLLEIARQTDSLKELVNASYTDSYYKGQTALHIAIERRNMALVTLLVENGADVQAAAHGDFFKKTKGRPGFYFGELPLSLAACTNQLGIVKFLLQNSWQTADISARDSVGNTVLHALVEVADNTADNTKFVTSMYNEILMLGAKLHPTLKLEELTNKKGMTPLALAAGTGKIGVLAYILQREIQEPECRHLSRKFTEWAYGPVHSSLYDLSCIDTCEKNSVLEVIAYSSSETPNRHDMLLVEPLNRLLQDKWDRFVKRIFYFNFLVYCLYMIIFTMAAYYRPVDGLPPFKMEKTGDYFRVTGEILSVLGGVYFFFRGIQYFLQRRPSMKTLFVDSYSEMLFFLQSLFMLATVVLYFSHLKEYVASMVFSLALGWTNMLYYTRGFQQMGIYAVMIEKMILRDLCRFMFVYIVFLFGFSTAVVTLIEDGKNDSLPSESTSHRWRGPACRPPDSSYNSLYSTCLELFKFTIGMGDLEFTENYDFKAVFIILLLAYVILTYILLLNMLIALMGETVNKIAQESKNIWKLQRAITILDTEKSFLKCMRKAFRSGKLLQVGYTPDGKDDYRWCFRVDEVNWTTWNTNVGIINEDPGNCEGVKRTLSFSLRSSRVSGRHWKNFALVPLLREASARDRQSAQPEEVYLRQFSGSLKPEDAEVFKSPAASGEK
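Fluo-8 calcium influx in TRPV1-expressing cells, kinetic read (ex 480/em 520 nm). Compound added and read 3 min for agonist activity, followed by capsaicin at EC20 final and 2 min further read for enhancement.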
Menin-MLL FL inh – qHTS Assay for Inhibitors Targeting the Menin-MLL Interaction in MLL Related Leukemias: Competition With Fluorescein Labeled MLL-derived Peptide | Fluorescence polarization, fluorescein-MLL peptide displacement from menin | FP activity change, % at 61.4 µM | 290,000 tested, under 10 active | AID 1766, 2009; inconclusive = falling polarisation curve, or a change in total fluorescence; inactive = total fluorescence flat and polarisation flat or rising; no compound was filed as active; the % refers to the polarisation; negative = inhibition;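 note: % of control where 0% means no effect; inhibitors lower the polarisation; unlabelled MLL peptide was the positive control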
Sfp PPTase inh – qHTS Assay for Inhibitors of Bacillus subtilis Sfp phosphopantetheinyl transferase (PPTase); 310,000 compounds, 3.5% hits; Biochemical Sfp PPTase activity, qHTS; Potency, µM, inactives show max response, negative = inhibition, most hits filed as inhibitors; active = well fitted inhibition curve with a large enough effect; inconclusive = small, poorly fitted or top-dose-only effect, or another doubt; inactive = no such curve, though single readings can be large or run the other way;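 note: the enzyme is Sfp with the accession as filed and its product quenches rhodamine fluorescence; potency is the fitted concentration of half-maximal effect; 0% = enzyme reaction without inhibitor and -100% = no enzyme wells; top concentration of the series not given in the record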
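Compounds were incubated with enzyme (final 15 nM) for 15 min at room temperature before substrate addition started the reaction. Fluorescence at 525 nm excitation, 598 nm emission was recorded immediately and after 30 minutes.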
An asterisk follows results filed as active; ? = inconclusive; · = no result given; & = joins results of further samples; [ ] = another dose, or the depositor's remark.

SMILES	gsp ag	CtBP-E1A inh	ClpP mod	gsp antagonist	TRPV1 potentiator	Menin-MLL FL inh	Sfp PPTase inh
COc1ccc(N2C(=O)[C@H]3[C@@H](C2=O)C2c4ccccc4C=NN2[C@H]3C(=O)C(C)(C)C)cc1 (stereo partly drawn)	16%	-11	0.4%	-5%	-2	-2.9	17%
COc1ccc(N(CCC#N)C(=O)/C(C#N)=C\c2cccs2)cc1	-1%	7	·	-4%	27	-1.5	13%
CCOc1ccc(NS(=O)(=O)c2ccc(C(=O)N3CCN(c4ncccn4)CC3)cc2)cc1	7%[15.4 µM]	-6	·	-18%	-23	0.4	13%
NS(=O)(=O)c1ccc(NC(=O)c2cc(Cl)ccc2Cl)cc1	23%	-8	·	6%	-13	-2.1	4%
CCn1nc(C)cc1C(=O)N1CCCC(C(=O)c2ccc3ccccc3c2)C1 (stereo not drawn)	13%	·	-20%	-6%	-7	1.7	7%
COc1cc(NC(=O)c2cc(-c3ccccc3)nc3c2cnn3C(C)C)cc(OC)c1OC	-22%	1	5.4%	?	·	·	·
Cc1ccc(S(=O)(=O)NCCC(=O)NCCN2CCCCCC2)cc1	-38%	0	-1.8%	3%	22	0.5	-12%
Cc1ccc(NC(=O)C2CCC(N3C(=O)C4CCCCC4C3=O)CC2)cc1 (stereo not drawn)	1%	-3	·	-7%	-5	·	-6%
CCOC(=O)C1CNc2cc(S(=O)(=O)CC)ccc2O1 (stereo not drawn)	-2%[15.4 µM]	-13	·	-37%	22	1.2	24%
CC(C)(C)c1ccc(S(=O)(=O)Nc2cccc(C3OCCCO3)c2)cc1	-16%	6	5.1%	1%	-5	1.1	10%
Cc1ccc(/C(O)=C2/C(=O)C(=O)N(CCCn3ccnc3)C2c2cccnc2)cc1 (stereo not drawn)	-21%[15.4 µM]	2	·	13%	·	·	·
Cc1ccc([C@H]2C[C@@H](O)[C@H](n3cc(-c4ccc(F)cc4)nn3)CN2C(=O)c2cccs2)cc1	-19%	-3	1.0%	·	·	·	·
COc1ccc(OC)c(S(=O)(=O)N2CCCC(C)C2)c1 (stereo not drawn)	-54%[inhibitor]	5	1.3%	-10%	5	2.8	9%
Cc1ccc(C)c(C(=O)CSc2n[nH]c(-c3ccncc3)n2)c1	9%	-8	-2.3%	-24%	-1	-0.9	-9%
Cc1nn(-c2ccccc2)c2sc(C(=O)NC3CCCCC3)cc12	-12%	17	?	-10%	2	3.3	0%
CCOC(=O)C1=C(CSc2nc3ccccc3s2)NC(=O)NC1c1cc(C)ccc1C (stereo not drawn)	-32%	7	-8.8%	5%	5	5.2	7%
COc1ccc(-c2cc(C(=O)OCC(=O)N3CCCCC3)c3ccccc3n2)cc1OC	20%	15	-0.8%	?	·	·	·
Cc1ccccc1S(=O)(=O)Cc1ccc(C(=O)NC2CC2)o1	-6%	·	0.7%	28µM*	9	·	3%
CCNC(=S)/C(=C(/[O-])c1ccc([N+](=O)[O-])cc1)[n+]1ccccc1	-20%	2	-0.5%	3%	-8	-6.0	-15%
CCOc1ccccc1OCCN1CCC(Cc2ccccc2)CC1	49%[15.4 µM]	3	-1.3%	13%	3	4.3	-5%
COc1ccc(NC(=O)c2ccccn2)cc1	?	10	2.2%	14%	-23	1.5	8%
CCOC(=O)C1(Cc2ccccc2C)CCCN(C(=O)CCc2cccnc2)C1 (stereo not drawn)	-11%	·	1.6%	-3%	-17	1.0	7%
COc1ccc(CCNC(=O)CC(=O)NCCc2ccc(OC)cc2)cc1	4%[15.4 µM]	2	·	-2%	15	-1.1	-2%
CN(C)C1=NCCN1CC1CCCC1	10%	·	-2.1%	9%	?	·	·
COc1cc(OC)c(NC2=NCCCCC2)cc1Cl	-29%	7	0.4%	12%	-3	1.1	0%
CCN1CCN(CCCN(Cc2ccco2)C(=S)Nc2ccc(Cl)c(C)c2)CC1	-8%[15.4 µM]	2	0.8%	10%	1	-3.9	13%
CCn1c2ccccc2c2cc(NC(=S)N3CCOCC3)ccc21	-75%[inhibitor]	-6	5.1%	1%	-4	-0.6	5%
CCc1cccc(CC)c1NC(=O)C(NS(=O)(=O)c1cccs1)c1ccccc1 (stereo not drawn)	-12%	4	-1.2%	-1%	-7	-2.7	10%
CCOc1ccccc1NC(=S)Nc1ccc2cn[nH]c2c1	-15%	-18	-21%	6%	-22	5.6	-20%
NC1=NC2(CCCCC2)N=C(Nc2ccc(Br)cc2)N1	?	1	-1.0%	0%	3	-0.3	-4%
CC(=O)Nc1ccc(CN2CCN(Cc3ccc(C)cc3)C(CCO)C2)cc1 (stereo not drawn)	20%	·	1.0%	11%	-2	-0.7	2%
O=C(COC(=O)CCNS(=O)(=O)c1ccccc1)NNC(=O)c1ccccc1	-8%[15.4 µM]	-1	·	0%	-1	·	·
O=c1[nH]c(=S)[nH]c2[nH]c(=S)[nH]c12	·	·	·	·	-5&-5	-1.3	3.2µM*
Cc1c(C)c2cc(Cl)c(OCC(=O)Nc3ccccn3)cc2oc1=O	-17%	-4	-21%	·	·	·	·
C=CCn1c(SCC(=O)c2ccc(OC)cc2)nnc1C(C)NC(=O)c1cccs1 (stereo not drawn)	-18%	0	0.5%	-5%	9	5.2	-7%
CCCCn1c(NC(=O)C2CCCCC2)nc2ccccc21	-8%	3	-0.4%	-2%	-15	3.1	16%
CCOc1ccc2nc(CN3CCN(Cc4ccccc4OCC)C(CCO)C3)ccc2c1 (stereo not drawn)	5%[15.4 µM]	-1	1.1%	-11%	-10	0.9	12%
COC(=O)c1nc(-c2ccccc2)n[nH]1	1%	3	0.4%	4%	1	0.6	-24%
CC(=O)NC(CC(=O)Nc1nccs1)c1ccccc1 (stereo not drawn)	2%	-12	-3.7%	14%	?	0.1	5%
COCC(C)NC(=O)C1CC(=O)N(c2ccc(C)cc2)C1 (stereo not drawn)	-35%	-1	1.8%	8%	-23	-0.5	-1%
COc1ccc(Nc2nc3ccc(C)cn3c(=O)c2/C=N/O)cc1	-33%[inhibitor]	11	·	-16%	-4	1.2	2%
COc1ccc(C2=NS(=O)(=O)N(C)C(C(=O)NC3CCCC3)=C2)cc1	-66%[inhibitor]	7	-2.6%	-2%	-11	1.6	15%
CN1CCN(S(=O)C23CC4CC(CC(C4)C2)C3)CC1 (stereo not drawn)	-13%	19	0.6%	18%	-3	-19	-8%
COc1ccccc1C1CCN(C(=O)c2ccc(C(C)(C)C)cc2)CC1	33%[15.4 µM]	5	-1.3%	-37%	-2	3.2	-27%
CC(C)C(=O)N1CCN(c2ccc([N+](=O)[O-])cc2Cl)CC1	-14%	-3	1.2%	0%	8	6.1	-20%
c1ccc(Cc2cc[n+](Cc3ccccn3)cc2)cc1	-22%	9	·	6%	·	0.8	8%
CCOc1ccccc1C(=O)N(CN1CCCC1=O)c1cccc(Cl)c1	-9%	0	5.7%	-2%	0	2.7	12%
CCN(C(=O)CSc1nnc(C(C)N(C)C)n1-c1ccc(F)cc1)C1CCS(=O)(=O)C1 (stereo not drawn)	-1%	8	-0.5%	-1%	0	·	·

Arranged by SMILES length (rising): part of the list above.
SMILES	gsp ag	CtBP-E1A inh	ClpP mod	gsp antagonist	TRPV1 potentiator	Menin-MLL FL inh	Sfp PPTase inh
CC(=O)NC(CC(=O)Nc1nccs1)c1ccccc1 (stereo not drawn)	2%	-12	-3.7%	14%	?	0.1	5%
c1ccc(Cc2cc[n+](Cc3ccccn3)cc2)cc1	-22%	9	·	6%	·	0.8	8%
O=c1[nH]c(=S)[nH]c2[nH]c(=S)[nH]c12	·	·	·	·	-5&-5	-1.3	3.2µM*
CN1CCN(S(=O)C23CC4CC(CC(C4)C2)C3)CC1 (stereo not drawn)	-13%	19	0.6%	18%	-3	-19	-8%
COCC(C)NC(=O)C1CC(=O)N(c2ccc(C)cc2)C1 (stereo not drawn)	-35%	-1	1.8%	8%	-23	-0.5	-1%
COc1ccc(Nc2nc3ccc(C)cn3c(=O)c2/C=N/O)cc1	-33%[inhibitor]	11	·	-16%	-4	1.2	2%
CCOc1ccccc1C(=O)N(CN1CCCC1=O)c1cccc(Cl)c1	-9%	0	5.7%	-2%	0	2.7	12%
Cc1c(C)c2cc(Cl)c(OCC(=O)Nc3ccccn3)cc2oc1=O	-17%	-4	-21%	·	·	·	·
COc1ccccc1C1CCN(C(=O)c2ccc(C(C)(C)C)cc2)CC1	33%[15.4 µM]	5	-1.3%	-37%	-2	3.2	-27%
CC(C)C(=O)N1CCN(c2ccc([N+](=O)[O-])cc2Cl)CC1	-14%	-3	1.2%	0%	8	6.1	-20%
CC(=O)Nc1ccc(CN2CCN(Cc3ccc(C)cc3)C(CCO)C2)cc1 (stereo not drawn)	20%	·	1.0%	11%	-2	-0.7	2%
CCOc1ccc2nc(CN3CCN(Cc4ccccc4OCC)C(CCO)C3)ccc2c1 (stereo not drawn)	5%[15.4 µM]	-1	1.1%	-11%	-10	0.9	12%
COc1ccc(C2=NS(=O)(=O)N(C)C(C(=O)NC3CCCC3)=C2)cc1	-66%[inhibitor]	7	-2.6%	-2%	-11	1.6	15%
C=CCn1c(SCC(=O)c2ccc(OC)cc2)nnc1C(C)NC(=O)c1cccs1 (stereo not drawn)	-18%	0	0.5%	-5%	9	5.2	-7%
CCN(C(=O)CSc1nnc(C(C)N(C)C)n1-c1ccc(F)cc1)C1CCS(=O)(=O)C1 (stereo not drawn)	-1%	8	-0.5%	-1%	0	·	·
